TRPML1 inh: inhibitors of human TRPML1 channel; Q9GZU1; TRPML1-inducible cells, Ca2+ dye fluorescence, FDSS; hits give low values; inhibition of EC80 agonist-evoked calcium signal; activity change, negative = inhibition, % (no concentration beside the values); hit rate 0.02% among 390,000; AID 624415; in the data active means activity change below about -50%; inconclusive means about -30% to -50%; inactive means above about -30%;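 also: stimulus is agonist 54-4 at its EC80 concentration; % is scaled to controls: 0 for no effect and ±100 for the full control effect; compound concentration not given in the record; the text of the record puts the active cut at -80%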
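Calcium fluorescence in TRPML1-DL cells induced overnight with Tet: a 110 s read after compound pin addition, then a 110 s antagonist read after challenge with 54-4 at 4 uM final (EC80).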
D2 potentiator: positive allosteric modulators of human D2 dopamine receptor; P14416; DiscoveRx D2 beta-arrestin cells, luminescence, 90 min; 100% = 57 uM dopamine signal; potentiation, % (test concentration not listed); hit rate 0.23% among 360,000; AID 624464; active = potentiation of 50% or more; inconclusive = 30% to 50%; inactive = 30% or less;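 also: compound concentration not given in the record; tested on top of an EC20 dose of dopamine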
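D2 cells co-treated with compound plus 50 nM dopamine (EC20) for 90 min at 37 deg C to detect potentiation. Beta-arrestin recruitment was read as enzyme-fragment luminescence after 1 h at ambient temperature. Full response was set by 57 uM dopamine.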
TRPML1 ag: human mucolipin-1 channel agonism | activation, % (test concentration not listed) | Q9GZU1 | hit rate 0.12% among 410,000 | TRPML1-expressing cells, Ca2+ dye fluorescence, FDSS; host cell line not named in the record; reference of the full effect not given here; in the data active = activation above about 50%; inconclusive = about 30% to 50%; inactive = below about 30%; also: 0% is about no effect; the text of the record puts the active cut at 80%
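Calcium fluorescence on an FDSS kinetic reader gave the read-out. Tet-induced TRPML1-DL cells were plated overnight, dye-loaded (Ca8 with quencher, 45-90 min, room temperature, dark), then read 110 s after compound addition, and again 110 s after 4uM final 54-4 (EC80).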
D2 agonist: agonists of human D2 dopamine receptor (beta-arrestin) | P14416 | DiscoveRx PathHunter D2 beta-arrestin, luminescence, 90 min; 100% = 57 uM dopamine signal | activation, % (no concentration beside the values) | hit rate 0.084% among 360,000 | AID 624465; in the data active = activation above about 40%; inconclusive = about 15% to 40%; inactive = below about 15%; also: compound concentration not given in the record; the text of the record calls up to 30% inactive
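Agonist mode: compounds alone added to overnight-plated D2 PathHunter cells for 90 min at 37 C, with 57 uM final dopamine (EC100) defining full response. Beta-arrestin recruitment detected by chemiluminescent reagent, read after 1 h at ambient temperature.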
PINK1 expr mod: modulators of PINK1 expression. PINK1 immunofluorescence, high-content cytometry, 24 h. Potency, µM (doses to about 76.6 µM), inactives show at the highest dose activation (PINK1 increase), actives largely listed as activators. hit rate 0.2% among 410,000. AID 624263; active = well fitted activation curve with a large enough effect; inconclusive = small, poorly fitted or top-dose-only effect; inactive = flat fitted curve, though single readings scatter; cell line not stated here;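 also: potency is read from the fitted curve at half-maximal effect; % of control where 0% means no effect; nearly all actives have a fitted effect of over 65% in size; a mitochondrial uncoupler was the plate control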
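Stable cell line treated 24 h with compounds at 5 concentrations (CCCP controls), then fixed and immunostained for PINK1 plus nuclear and cell stains; PINK1 immunofluorescence quantified by laser-scanning microplate cytometry.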
Six1-Eya2 inh: Six1/Eya2 interaction inhibition; hit rate 0.56% among 360,000; activity change, % (no concentration beside the values); AID 651725; AlphaScreen GST-Six1/His-Eya2 binding, biochemical; hits give low values; control for the full effect not named in the record; Q15475+O00167; in the data active = activity change below about -65%; inconclusive = about -30% to -65%; inactive = above about -30%; also: % is scaled to controls: 0 for no effect and ±100 for the full control effect; compound concentration not given in the record
Target sequence (O00167 whole entry, looked up): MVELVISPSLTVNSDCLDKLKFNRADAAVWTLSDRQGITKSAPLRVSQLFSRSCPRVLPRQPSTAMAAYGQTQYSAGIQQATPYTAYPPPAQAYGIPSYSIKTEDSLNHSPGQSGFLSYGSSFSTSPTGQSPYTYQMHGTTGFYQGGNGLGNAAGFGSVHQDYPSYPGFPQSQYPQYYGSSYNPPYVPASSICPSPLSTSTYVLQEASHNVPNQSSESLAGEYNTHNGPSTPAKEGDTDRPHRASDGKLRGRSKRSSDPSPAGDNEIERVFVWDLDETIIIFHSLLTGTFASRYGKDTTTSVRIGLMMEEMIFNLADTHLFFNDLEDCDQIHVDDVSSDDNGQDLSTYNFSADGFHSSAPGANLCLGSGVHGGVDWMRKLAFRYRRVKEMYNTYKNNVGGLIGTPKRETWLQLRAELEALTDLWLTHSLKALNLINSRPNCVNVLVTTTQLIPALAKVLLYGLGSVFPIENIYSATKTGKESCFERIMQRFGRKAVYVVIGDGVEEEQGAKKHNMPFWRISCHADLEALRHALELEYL
Target sequence (Q15475 whole entry, looked up): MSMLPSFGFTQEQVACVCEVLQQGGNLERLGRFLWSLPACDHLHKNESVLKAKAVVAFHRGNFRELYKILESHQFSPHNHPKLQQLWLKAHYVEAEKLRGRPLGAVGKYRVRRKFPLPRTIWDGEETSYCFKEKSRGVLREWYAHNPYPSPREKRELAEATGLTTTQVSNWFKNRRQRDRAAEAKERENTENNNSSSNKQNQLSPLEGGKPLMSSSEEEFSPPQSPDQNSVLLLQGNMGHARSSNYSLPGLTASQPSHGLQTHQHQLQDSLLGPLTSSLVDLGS
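Compounds are tested against tagged Six1 and Eya2 proteins bridged by glutathione donor and nickel acceptor beads; after a one-hour incubation at 37 °C without light, AlphaScreen emission is recorded.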
* marks the source's active call; other numbers are inactive results; ? = inconclusive; . = not tested or not shown; & = joins results of further samples; [ ] = remark or other dose.

SMILES	TRPML1 inh	D2 potentiator	TRPML1 ag	D2 agonist	PINK1 expr mod	Six1-Eya2 inh
C[C@]12C(=O)N(c3ccc(Cl)cc3)C(=O)N1[C@@H]1c3ccccc3OC[C@@H]1[C@H]2c1ccccc1	57	-17	0.0	-4.5	0.1%	-7
CCn1c(=O)n(-c2ccc3c(c2)OCO3)c2nc(-c3cc(OC)ccc3OC)nc(C(N)=O)c21	14	.	-0.4	.	2.1%	.
CCC(CC)NC(=O)CN1CCN(S(=O)(=O)c2ccc(Br)s2)CC1	0	50*	-1.0	1.9	1.2%	5
CCOC(=O)CSc1nc(C)c(CC)c(C)c1C(N)=O	3	-4	-0.3	8.9	1.4%	14
CCCn1nc2cc(C(=O)NC3CCCc4ccccc43)ccc2c1OCC (configuration not stated)	-10	-2	0.3	-3.1	2.1%	7
CCOC(=O)C1(Cc2ccc(Cl)cc2)CCN(C(=O)c2ccoc2)CC1	43	1	0.9	0.6	-0.9%	0
CC(C)c1ccc(NC(=O)c2ccc(NC3=NC4CS(=O)(=O)CC4S3)cc2)cc1 (configuration not stated)	-5	-5	0.1	1.7	-0.3%	0
COc1ccc(OC(=O)N(C)C[C@@H]2OCc3cn(nn3)CCCC(=O)N([C@H](C)CO)C[C@H]2C)cc1	-12	-8	0.4	-5.0	-0.3%	2
CC(OC(=O)c1cccc(N(C)C)c1)C(=O)N1CCc2ccccc2C1 (configuration not stated)	3	-6	1.3	-1.1	-3.1%	-21
COc1ccc(OC)c(NC(=O)CSc2ccc(-c3cccnc3)nn2)c1	19	15	0.0	1.0	1.1%	-9
Cc1csc(Sc2nc3c(c(=O)[nH]c(=O)n3C)n2CCCc2ccccc2)n1	13	-8	0.3	-3.5	-1.9%	3
Cc1ccc(S(=O)(=O)N2C[C@H]3C(=O)C[C@@H](c4cccc(Cl)c4)N(S(=O)(=O)c4ccc(C)cc4)[C@H]3C[C@H]2c2cccc(Cl)c2)cc1	-10	-1	17	-7.2	0.0%	0
CCOC(=O)c1cnn2c(N)c(C#N)cnc12	-6	-12	-0.2	-4.1	-0.2%	-3
CC1(C)CC(=O)C(C=NCCc2ccc(O)cc2)=C(O)C1	25	-1	1.2	-0.7	-7.0%[38.3 µM]	1
CCC(C(=O)NCCc1ccc(Cl)cc1)n1ccc2cc(S(=O)(=O)N3CCCCC3)ccc21 (configuration not stated)	5	.	-0.5	.	-1.1%	.
Cc1cccc(-n2cc(CN3CCN(c4ccccn4)CC3)c(-c3cccc(F)c3)n2)c1	-21	-3	1.6	-0.8	3.8%	-6
CCC(=O)c1ccc(OCC(O)CN2CCN(S(=O)(=O)c3ccc(NC(C)=O)cc3)CC2)cc1 (configuration not stated)	6	-3	0.2	-3.4	-0.5%	1
CCCn1nc(NC(=O)CC)c2cc3cccc(C)c3nc21	-19	0	3.2	-0.7	-2.3%	44
O=C(Nc1cc([N+](=O)[O-])ccc1C(=O)NCCN1CCOCC1)c1ccccc1	9	-21	-0.2	1.9	2.5%	-7
CCC(C)[C@H](NC(=O)N1CCCC1)C(=O)OC (some centres not stated)	-3	-9	0.4	-3.4	2.3%[38.3 µM]	7
COc1ccc(NC(=S)NCc2ccc(F)cc2)cc1	-7	-2	-0.6	-3.4	2.2%	-5
COc1ccc2c(c1)C(=O)CC(c1ccc(OC)c(OC)c1)O2 (configuration not stated)	-6	-3	0.6	-1.0	1.2%	0
O=C(c1ccco1)N1CCN(C(=O)C2CCCN(S(=O)(=O)Cc3ccccc3)C2)CC1 (configuration not stated)	21	-1	0.7	-1.5	2.9%	4
NC(=O)CN1C(=O)NC2(CCCc3ccccc32)C1=O (configuration not stated)	-3	-2	0.2	0.5	1.4%	4
COc1ccccc1N1CCN(CCCCCCOc2ccc(F)cc2)CC1	33	-30	0.4	-0.9	?	-9
O=c1oc2c3c(ccc2c2ccccc12)OCN(Cc1ccc(Cl)cc1)C3	13	.	-1.0	.	-0.8%	.
COc1nc(N)c(S(=O)(=O)c2ccccc2C)cc1C#N	6	4	-0.4	-2.1	5.3%[38.3 µM]	-2
CCOC(=O)c1sc2ncnc(Nc3cccc(C(=O)O)c3)c2c1C	23	-2	-0.1	-3.0	0.4%	-5
O=C(CSc1ccc(-c2cccs2)nn1)c1cccs1	0	-1	-0.9	-1.4	-0.2%	3
O=C(NCC1c2ccccc2CCN1C(=O)CN1C(=O)c2ccccc2C1=O)C1CCCCC1 (configuration not stated)	15	-10	1.1	-2.1	0.4%	1
CCOc1ccc(S(=O)(=O)N/N=C(\C)c2ccc(Cl)c(Cl)c2Cl)cc1	-13	-11	1.5	1.5	1.1%	1
COc1ccc(NC(=O)Cn2nnc(C(=O)NCc3ccco3)c2N)c(OC)c1	-21&-4	-7	-1.1&-0.8	-0.3	6.4%&1.5%	-3
CC(=O)c1ccc(S(=O)(=O)Nc2ccc(-c3ccc(N4CCCCC4)nn3)cc2)cc1	3	.	0.2	.	0.8%	.
COc1ccc(OC)c(/C=N\Nc2nccs2)c1	-18	-2	1.7	5.7	2.1%	-8
CCCc1c(C(=O)N/N=C/c2c[nH]c3ccccc23)nnn1-c1nonc1N	-10	-3	0.4	1.6	5.8%	-1
COc1ccc(CNC(=O)C(c2ccncc2)N(C(=O)Cc2cccs2)c2ccc(C)cc2)cc1 (configuration not stated)	12	-5	0.4	-0.4	-7.8%[38.3 µM]	-2
O=C(/C=C/c1ccc2ccccc2n1)N1CCN(S(=O)(=O)c2ccc(F)cc2)CC1	-7	-10	1.2	2.2	-0.3%	1
O=C(Nc1ccc(S(=O)(=O)NCc2ccccc2)cc1)C1CCCCC1	-5	9	-0.4	-0.8	14%	15
CCc1ccc(CNC(=O)c2cnc3c(C)cccn3c2=O)cc1	-21	.	1.9	.	3.4%	.
CCCCC[C@H](C)N1C[C@@H](COCc2ccccc2)Oc2cc(N3CC[C@@H](O)C3)ccc2S1(=O)=O	.	.	0.0	.	11%	-13
COc1cccc(-c2cc(CNC(=O)[C@H]3O[C@@H](n4ccc(N)nc4=O)[C@H](O)[C@@H]3O)no2)c1	.	-2	-0.3	-1.7	-0.4%	-4
CCc1cccc(C)c1NS(=O)(=O)c1cc(-c2cc(C)no2)ccc1C	-23	.	1.0	.	1.8%	.
CCOc1ccc(-n2c(-c3ccc(Cl)cc3)c[n+]3c2SCC3)cc1	-6	-12	-0.1	-2.0	2.4%	-5
CC[C@H](C)/C=C/C1=CC2=C(Cl)C(=O)[C@@]3(C)OC(=O)C(C(=O)[C@H](C)[C@@H](C)O)=C3C2=CO1	-7	-3	2.9	3.1	17%	-23
C[C@@H]1CCC2[C@](C)(CO)[C@@H](O)CC[C@]2(C)[C@@]12CC[C@@](CO)(CC(=O)O)O2 (some centres not stated)	18	-9	0.7	2.3	0.3%	-1
CCOC(=O)c1c(Cl)c(C)nn1-c1nc(OC)cc(OC)n1	0	-12	1.8	-1.7	6.8%	0
O=C1Nc2ccc(S(=O)(=O)NCC3CCCO3)c3cccc1c23 (configuration not stated)	3	-9	0.0	-0.5	-1.6%	-1
CC(=O)c1ccc(N2CCN(c3ncnc4c3nc3n4CCCC3)CC2)cc1	-12	.	0.9	.	20%	.
COc1ccc(C(=O)c2ccc(CC#N)s2)cc1	28	14	-0.4	10	5.7%	2
Cc1cccc(NC(=O)CSc2nc(=O)n(CCN3CCOCC3)c3c2CCC3)c1C	20	.	-0.6	.	0.1%	.
Cc1cc(C)cc(NC(=O)c2ccc3c(O)c(S(=O)(=O)c4ccccc4)c(=O)[nH]c3c2)c1	0	.	-0.5	.	-0.1%	.
CC1(C(=O)N(CC(=O)NC2CCCC2)Cc2ccc(Cl)cc2)CC(=O)N=C2C=CC=CN21 (configuration not stated)	29	-1	0.5	-2.2	0.1%	15
CC(C(=O)N1CCOCC1)c1ccccc1 (configuration not stated)	-4	-1	-0.2	-3.2	0.4%	3
Cn1c(=O)c2c(ncn2CC(N)=O)n(C)c1=O	4	-14	-0.7	2.3	0.8%	-3
COc1ccc(OCCSc2nc(-c3ccccc3)cc(=O)[nH]2)cc1	6	-10	-0.2	-2.2	0.8%	-21
CC(C)=C(NC(=O)c1ccccc1Br)C(=O)NCCc1nc2ccccc2[nH]1	11	-10	-0.1	0.0	-0.6%	0
O=C(NCCO)c1cc2ccccc2cc1O	-5	14	0.0	1.3	-4.3%[38.3 µM]	-4
O=[N+]([O-])c1ccc(N(CC(O)CN2CCCCC2)S(=O)(=O)c2ccccc2)cc1 (configuration not stated)	-17	-15	-0.1	-1.6	-3.3%	10
COc1ccc(C(=O)N2CCC2(C)C(=O)O)cc1F (configuration not stated)	.	-2	-0.7	-2.9	7.9%	7
Cc1nc2cc(NC(=O)Nc3ccccc3Cl)ccc2n1C	10	-1	0.3	-0.6	-0.2%	15

(continued)
SMILES	TRPML1 inh	D2 potentiator	TRPML1 ag	D2 agonist	PINK1 expr mod	Six1-Eya2 inh
O=C(CSc1nc(-c2ccco2)cc(C(F)(F)F)n1)NCC1CCCO1 (configuration not stated)	2	-18	0.0	1.7	-2.4%[38.3 µM]	7
COc1ccc(Cl)cc1C(=O)NNC(=O)COC(=O)c1ccc(Br)o1	-7	-21	-0.2	5.3	0.9%	0
Cc1ccc(NC(=O)CCc2nc3ccccc3c(=O)[nH]2)cc1S(=O)(=O)N1CCOCC1	2	-25	1.5	-4.8	4.0%	-3
Cc1ccc(C(=O)Nc2ncc(Cc3ccccc3)s2)o1	12	-9	0.0	2.3	.	-5
CCCN1C(=O)/C(=C/c2ccc(N3CCOCC3)cc2)NC1=S	-1	-13	20	-4.7	9.7%	13
COc1ccc(CCNC(=O)c2nnn(CC(=O)Nc3ccccc3)c2N)cc1OC	-3	1	2.1	2.7	-1.5%	5
CC1=Nc2cc(C(=O)NCCCN3CCN(C)CC3)ccc2Sc2ccc(C)cc21	-5	-5	0.0	5.6	13%	-7
CC(C)NC(=O)NC(=O)COC(=O)/C=C/c1ccc2c(c1)OCO2	-5	-6	-0.4	-7.4	0.0%	2
O=C(CC1c2ccccc2C=C(c2ccsc2)N1c1ccc(-c2cccnc2)cc1)C1CC1 (configuration not stated)	.	.	-0.3	.	1.1%	13
COc1ccccc1CNCC(O)(c1ccc(F)cc1)c1ccc(F)cc1	28	-21	1.7	-4.3	8.8%	-1
COCc1ccc(CN2CCCC(CO)(Cc3cccc(Cl)c3)C2)o1 (configuration not stated)	-2	-25	0.3	-4.0	0.4%	-3

Fetched by compound from the list above, four records:
SMILES	TRPML1 inh	D2 potentiator	TRPML1 ag	D2 agonist	PINK1 expr mod	Six1-Eya2 inh
Cc1ccc(NC(=O)CCc2nc3ccccc3c(=O)[nH]2)cc1S(=O)(=O)N1CCOCC1	2	-25	1.5	-4.8	4.0%	-3
Cc1ccc(C(=O)Nc2ncc(Cc3ccccc3)s2)o1	12	-9	0.0	2.3	.	-5
O=C(CC1c2ccccc2C=C(c2ccsc2)N1c1ccc(-c2cccnc2)cc1)C1CC1 (configuration not stated)	.	.	-0.3	.	1.1%	13
COc1ccc(Cl)cc1C(=O)NNC(=O)COC(=O)c1ccc(Br)o1	-7	-21	-0.2	5.3	0.9%	0

High-throughput results from PubChem.
